N370S GC: qHTS Assay for Inhibitors and Activators of N370S glucocerebrosidase as a Potential Chaperone Treatment of Gaucher Disease; hit rate 0.092% among 330,000; Potency, µM (series often up to 59.4 µM), without a hit: at the highest dose activity change, negative = inhibition, actives largely listed as inhibitors; N370S GC spleen homogenate, 4MU-glucoside fluorescence;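 further: 0% = full enzyme activity and -100% = no enzyme basal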
FEN1 inh: qHTS Assay for the Inhibitors of Human Flap endonuclease 1 (FEN1) | hit rate 0.35% among 390,000 | Recombinant FEN1 flap cleavage, fluorescence, 15 min | P39748 | Potency, µM (top dose mostly 114 µM), for inactives: at the top dose activity change, negative = inhibition, most hits filed as inhibitors; further: nearly all actives have a fitted effect of over 65% in size
Target sequence (P39748 whole entry, looked up): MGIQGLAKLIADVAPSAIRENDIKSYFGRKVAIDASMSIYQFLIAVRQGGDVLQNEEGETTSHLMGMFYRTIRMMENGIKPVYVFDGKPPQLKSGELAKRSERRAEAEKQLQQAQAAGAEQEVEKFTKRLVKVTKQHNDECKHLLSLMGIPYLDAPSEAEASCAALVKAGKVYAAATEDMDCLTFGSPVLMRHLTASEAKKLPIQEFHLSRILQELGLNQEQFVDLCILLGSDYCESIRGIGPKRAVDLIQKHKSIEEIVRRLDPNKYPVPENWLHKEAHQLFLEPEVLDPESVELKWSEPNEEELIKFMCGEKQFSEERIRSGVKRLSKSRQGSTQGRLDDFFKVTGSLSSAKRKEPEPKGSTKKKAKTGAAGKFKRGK
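FEN1 at 10 nM, compound pretreatment for 15 min (room temperature), 50 nM final substrate to initiate; endpoint reads at 0 and 15 min; DMSO-only plates used as vehicle background.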
Starred values were filed as active, the others as inactive; u = inconclusive; x = no result given; [ ] = remark or other dose. The call rests on the fitted dose curve; in most records, active means well fitted curve in the direction sought with a large enough effect; inconclusive means small, poorly fitted or top-dose-only effect, or another doubt; inactive means no such curve, though single readings can be large; an effect the other way counts as inactive or inconclusive. Unless noted, on the % scale 0 is the no-effect control and ±100 the full control effect; potency means the concentration at half of the fitted maximal effect. Some of the compounds tested, and most or all hits are left out here.

SMILES	N370S GC	FEN1 inh
CC(=O)N1CCc2c(sc3c2c(=O)n(-c2cccc(Cl)c2C)c(=O)n3Cc2ccccc2C)C1	x	-14%
CNc1cc(CS(=O)c2ccccc2)nc(-c2ccccc2)n1 (centres undefined)	12%	-9%
COc1cc(-n2nc(C)c3c2OC(N)=C(C#N)C3c2ccccc2)c(Cl)c(Br)c1O (centres undefined)	-9%	u
Cn1nnc2c[n+](CC(=O)c3ccc(Cl)cc3)cc(Br)c21	-3%	-11%
COC(=O)c1nc(N)sc1-c1ccccc1	-5%	4%
CCOC(=O)CCC(NC(=O)CCCCCCCC(=O)NC(CCC(=O)OCC)C(=O)OCC)C(=O)OCC (centres undefined)	6%	5%
C=CCN(CC=C)c1nc2ccccc2nc1C(C#N)C(=O)OC(C)C (centres undefined)	8%	2%
CC1CCc2[nH]c3ccc(C(=O)O)cc3c2C1 (centres undefined)	-16%	-3%
CC[C@]12c3[nH]c4ccccc4c3CCN1C(=O)C(CC(=O)NCCCOC)C[C@@H]2C(=O)N1CCN(C(=O)c2ccco2)CC1 (some centres undefined)	x	15%
O=C(COC(=O)c1ccc(Cl)cc1)NCC1CCCCC1	x	3%
COc1ccc(-c2cn[nH]c2C)cc1	0%	-4%
CCOC(=O)CSc1nc2c(sc(=S)n2-c2ccc(OCC)cc2)c(=O)[nH]1	5%	-4%
CCN1C(=O)[C@H]2[C@@H](c3ccc(-c4ccc(C(C)=O)cc4)cc3)N3CCC[C@@]3(C(=O)OC)[C@H]2C1=O	-9%	1%
CCc1nnc(NC(=O)CN2C(=O)N(C)C3(CCCCC3)C2=O)s1	x	-1%
COc1ccccc1S(=O)(=O)NCc1ccc(C(=O)NC(C)c2ccccn2)cc1 (centres undefined)	x	19%
CC1Cc2nc(SCC(=O)OCc3ccccc3)n(C)c(=O)c2S1 (centres undefined)	4%	-7%
CCOC(=O)N1CCN(C(=O)CSc2nnc(COc3ccc(Cl)cc3)o2)CC1	1%	u
CC(C)c1ccccc1NC(=O)COC(=O)c1cccnc1	4%	6%
CC1CCCCN1C(=O)/C(=C\c1ccccc1)c1ccccc1 (centres undefined)	12%	-21%
O=C(N/N=C/c1cnc(N2CCCCC2)s1)c1ccc(Cl)cc1	-10%	-7%
Cc1nn(Cc2c(F)c(F)c(F)c(F)c2F)c(C)c1NC(=O)c1ccc(COc2ccccc2Cl)o1	9%	-6%
CO[C@H]1COC(=O)[C@@H](C)COC(=O)[C@@H](Cc2ccccc2)NC(=O)C/C=C\[C@H]1C	6%[12.8 µM]	x
CC(=O)c1ccc2c(c1)CC(C)C(=O)N2C (centres undefined)	4%	3%
COc1ccc(/C=C2\CN(Cc3ccccc3)C/C(=C\c3ccc(OC)cc3OC)C2=O)c(OC)c1	7%	-17%
CCc1ccc(OCC2c3cc(OC)c(OC)cc3CCN2C(=O)c2ccc(S(=O)(=O)N3CCCC3)cc2)cc1 (centres undefined)	x	-12%
Cc1ccc(CNC(=O)C(=O)NCC2OCCCN2S(=O)(=O)c2cccs2)cc1 (centres undefined)	-15%	-5%
CC1CN(c2nc3ccccn3c(=O)c2/C=C(\C#N)C(=O)N2CCOCC2)CC(C)O1 (centres undefined)	-19%	7%
CC1(NC(=O)Nc2cccc3ccccc23)CCS(=O)(=O)C1 (centres undefined)	-10%	4%
CCOc1ccc(CCNC(=O)C(CC)n2nc(C)n3c(cc4sccc43)c2=O)cc1OCC (centres undefined)	11%	-5%
COc1ccc(-c2nc(C)c(C(C)=O)n2O)cc1[N+](=O)[O-]	u	2%
C[C@@H]1NC(=O)C/C=C\[C@@H](C)[C@@H]2C=C[C@H](O)[C@@H](COC(=O)[C@H](C)NC(=O)C/C=C\[C@@H](C)[C@@H]3C=C[C@H](O)[C@@H](COC1=O)O3)O2	10%[12.8 µM]	x
O=C(NNC1=C(C(=O)C(F)(F)F)CCC1)c1cccnc1	6%	0%
Cc1[nH]nc2c1C(c1ccco1)C(C#N)=C(N)O2 (centres undefined)	-6%	10%
CCCCOc1ccc(C(=O)Nn2c(-c3cccs3)nc3ccccc3c2=O)cc1	u	-12%
COc1ccc(CN2CCNC(=O)C2CC(=O)NCCSc2nccn2C)cc1OC (centres undefined)	-1%	19%
C/C(=N\N(Cc1ccccc1)c1ccccc1)c1ccncc1	7%	-17%
COc1ccccc1N(C(=O)CNC(=O)c1ccco1)C(C(=O)NC1CCCCC1)c1ccncc1 (centres undefined)	-15%	0%
CCC(=O)NC(C)C(c1cccs1)N1CCN(Cc2ccccc2)CC1 (centres undefined)	-2%	0%
CC(Oc1ccccc1F)c1nnc(SCC(=O)NCc2ccc3c(c2)OCO3)o1 (centres undefined)	x	2%
COc1cc(OC)c(N2CC34C=CC(O3)C(C(=O)O)C4C2=O)cc1Cl (centres undefined)	-5%	-9%
CC1CCCC(C)N1C(=O)c1cc(F)c(F)cc1Cl (centres undefined)	4%	-3%
COc1ccc(/C=C2/N=C(c3cccs3)OC2=O)cc1OC(C)C	3%	-5%
CCC1CCCCN1C(=O)CSc1nnc(CNC(=O)c2ccco2)o1 (centres undefined)	7%	2%
COC(=O)c1ccccc1NC(=O)c1sc(=S)n(C)c1N	3%	-6%
CCOc1ccc(C2C(=O)N(C3CCCCCC3)CC(=O)N2Cc2ccccc2)cc1OC (centres undefined)	x	-7%
COC(=O)C1=C(C)NC2=C(C(=O)c3ccccc32)C1c1ccc(-c2ccc(C(=O)O)cc2)o1 (centres undefined)	0%	u
CC(=O)Nc1ccc(C(=O)COC(=O)C2CC2C)c(F)c1 (centres undefined)	-1%	13%
COc1ccccc1C(=O)N=c1sc2c(C)ccc(OC)c2n1C	7%	-4%
COc1ccccc1CNc1nc2c(S(=O)(=O)c3ccc(C)c(C)c3)nnn2c2ccc(Cl)cc12	x	19%
CN(C(=S)SCc1ccccc1)C1CCS(=O)(=O)C1 (centres undefined)	-3%	-4%
CC1=CC(C)(C)N(C(=O)CN2C(=O)CCC2=O)c2ccc(C)cc21	7%	-4%
c1cn(-c2ncnc3sc4c(c23)CCCC4)cn1	-3%	-10%
Cc1cc(=O)n2c(n1)SCOC2	9%	7%
COc1ccc(OC)c(NC(=O)Cn2ccc3ccccc3c2=O)c1	x	1%
Cc1ccc(NC(=O)Cc2c(C(=O)O)c(C)cn2C)cc1Cl	x	2%
O=C(Cc1ccc(Cl)c(Cl)c1)Nc1ccc2[nH]c(=O)[nH]c2c1	10%	-3%
O=[N+]([O-])c1cccc(S(=O)(=O)N2CCN(S(=O)(=O)N3CCOCC3)CC2)c1	-2%	6%
CCOC(=O)N1CCN(C(=O)Cc2c(C(=O)O)n(C)c3ccccc23)CC1	-4%	1%
C=CCn1c(-c2ccc(OC)cc2)nc2nc3ccccc3nc21	u	-2%
COc1ccc(S(=O)(=O)N2CCC(C(=O)N3CCN(C)CC3)CC2)cc1Cl	-6%	0%

Following part
SMILES	N370S GC	FEN1 inh
COc1ccc(C(=O)NC(=S)NCc2cccnc2)cc1Br	-11%	12%
COc1ccccc1Nc1ccc([N+](=O)[O-])cc1N	-24%	-17%
COc1cc(SC)ccc1C(=O)NCCOc1ccc(C)c(C)c1	24%	-21%
CCc1cc2c(=O)c(-c3nc(C)cs3)coc2cc1O	2%	5%
COCCCN(CC(=O)Nc1ccc(N2CCOCC2)cc1)S(=O)(=O)c1ccccc1	8%	4%
COc1cc2ccccc2cc1C(=O)Nc1ccc2oc(-c3ccc(Cl)cc3)nc2c1	x	-3%
COc1cccc(CN(C)C(=S)Nc2ccc(C)c(C)c2)c1	3%	-5%
S=c1[nH]nc(-c2ccccc2Cl)n1Cc1ccccc1	5%	1%
Cc1ccc(C(=O)Nc2ccccc2C(=O)NC(CC(=O)O)C(=O)O)cc1 (centres undefined)	-1%	8%
COc1ccccc1OCc1ccc(C(=O)NCC2CCCO2)cc1 (centres undefined)	x	-7%
COc1ccc(Nc2nc(N)c([N+](=O)[O-])c(N3CCOCC3)n2)cc1	-7%	2%
COCCCNC(=O)Cn1nc(-c2ccc(C)cc2)ccc1=O	-6%	0%
O=C(NCC1CCCCC1)c1cc([N+](=O)[O-])ccc1N1CCOCC1	0%	4%
Cc1ccccc1CSc1nc2c([nH]c3ccccc32)c(=O)n1C	x	1%
COc1ccc(C(=O)NCc2ccc(-n3cccc3)cc2)cc1OC	9%	-18%
Cc1ccc2c(c1)N(C(=O)Nc1cccc(C)c1C)CCO2	x	-10%
COc1cccc(C(=O)Nc2ccc(-c3nc4ccc(C)cc4s3)cc2)c1OC	x	-6%
O=C(CNS(=O)(=O)c1ccc(F)cc1)N1CCN(c2ccccc2)CC1	2%	4%
COc1ccc(CCNC(=O)c2c(C)nn(CC(C)C)c2Cl)cc1	-11%	-3%
O=C(NC1CCCc2ccccc21)c1cncc(Br)c1 (centres undefined)	2%	6%
C/C(=N\NS(C)(=O)=O)c1ccccc1	-1%	-10%
O=C(c1ccco1)N1CCN(S(=O)(=O)c2ccc(Oc3ccccc3)cc2)CC1	-1%	-19%
O=C(Nc1cccc(C(F)(F)F)c1)C1CCN(S(=O)(=O)c2cccs2)CC1	x	-13%
O=C(Cc1ccccc1)NNC1CC(=O)N(c2ccc(Cl)cc2)C1=O (centres undefined)	-11%	7%
CCCC12CN(C(=O)c3ccc([N+](=O)[O-])cc3)CC(C)(CN(C(=O)c3ccc([N+](=O)[O-])cc3)C1)C2=O	-8%	-2%
O=C(Nc1nncs1)c1cccc(S(=O)(=O)N2CCc3ccccc32)c1	-14%	-6%
Cc1n[nH]c(C)c1S(=O)(=O)N1CCCC(C(=O)N2CCN(c3ccc(Cl)cc3)CC2)C1 (centres undefined)	19%	2%
Cc1ccc(S(=O)(=O)N2CCOCC2)cc1C(=O)OCC(=O)N(Cc1ccccc1)C(C)C	x	1%
Cc1ccc(N2CCN(S(=O)(=O)N3CCOCC3)CC2)cc1C	-12%	-5%
Cc1noc(C)c1C(=O)Nc1sccc1C(N)=O	x	-4%
CC1CCCCC12NC(=S)N(c1ccccc1)N2 (centres undefined)	7%	11%
CC(=O)c1ccc(N2CCN(C(=O)CCCn3c(=O)[nH]c4ccccc4c3=O)CC2)cc1	0%	-1%
Cc1cc(OCC(=O)Nc2cccc(S(=O)(=O)N3CCCC3)c2)ccc1Cl	-5%	-2%
CCCc1c(C(=O)OCC)[nH]c2c1C(=O)CCC2	14%	13%
NC(=O)CCCn1c(C(=O)c2cc(Cl)c(N)c(Cl)c2)c2ccc([N+](=O)[O-])cc2[n+]1[O-]	-10%	u
COc1ccc(NC(=O)c2cc(S(=O)(=O)N3CCCC3)ccc2C)cn1	x	-17%
COc1ccc(S(=O)(=O)Nc2cccc(-c3ccc(N4CCCC4)nn3)c2)cc1F	x	11%
CC(=O)N1CCC(C(=O)Nc2nc(-c3ccccc3)ns2)CC1	-1%	3%
